# 2A firefly: FMDV 2A StopGo reporter, firefly signal; HEK cells with a luciferase reporter of 2A StopGo recoding; Potency, µM (doses to about 57.5 µM), for inactives: at the highest dose signal change, negative = less light; 120,000 tested, 0.23% active; active = well fitted falling curve with a large enough effect; inconclusive = small, poorly fitted or top-dose-only effect; inactive = no such curve, though single readings can be large or run the other way; note: nearly all actives have a fitted effect of over 60% in size; overnight with compound
# StopGo RLuc: FMDV 2A StopGo reporter, Renilla signal. AID 1745857. 120,000 tested, 0.32% active. HEK cells with a luciferase reporter of 2A StopGo recoding. Potency, µM (titrated, usually from 57.5 µM), inactives show top-dose signal change, negative = less light; active means well fitted falling curve with a large enough effect; inconclusive means small, poorly fitted or top-dose-only effect; inactive means no such curve, though single readings can be large or run the other way; note: nearly all actives have a fitted effect of over 55% in size; overnight with compound
# * = called active by the depositor; ? = inconclusive; [ ] = another dose, or the depositor's remark. % is set by controls: 0 for no effect and ±100 for the full control effect; potency is the fitted concentration of half-maximal effect.
SMILES,2A firefly,StopGo RLuc
COc1cccc(-c2nn(C)c3sc(C(=O)NCc4ccc(C)cc4)cc23)c1,10%,0%
COc1ccc(NC(=O)CSc2oc(-c3ccco3)nc2S(=O)(=O)c2ccc(Br)cc2)c(OC)c1,-14%,34%[activator]
CCc1c(C(=O)NCc2ccc(OC)c(OC)c2)csc1C,?,?
O=C(CSc1nc2cc([N+](=O)[O-])ccc2o1)NCc1ccc(F)cc1,0%,6%
Cc1c(C=O)c(C)n(-c2cccc(Cl)c2)c1C,23%,30%
COC(=O)COc1cccc2c1OCCO2,-4%,-1%
O=C(CCS(=O)(=O)c1ccc2c(c1)NC(=O)CO2)Nc1cccc(C(F)(F)F)c1,-5%,0%
CNC(=O)c1cc(Oc2ccc(NC(=O)Nc3ccc(Cl)c(C(F)(F)F)c3)cc2)ccn1,-5%[11.5 µM],?
CN(C)c1ccc(CNC(=O)C2CCN(c3nnc(-n4cccc4)s3)CC2)cc1,0%,?
O=C(c1ccccc1Br)N(Cc1ccccc1F)C1CCS(=O)(=O)C1 (stereo not given),0%,2%

# Additional entries follow:
SMILES,2A firefly,StopGo RLuc
CC(C)(C)c1cc(SC2(Sc3cc(C(C)(C)C)c(O)c(C(C)(C)C)c3)C(=O)Nc3ccccc32)cc(C(C)(C)C)c1O,14%,26%
CC(C)CSc1oc(-c2ccco2)nc1S(=O)(=O)c1ccc(Br)cc1,-17%,0%
O=C(/C=C/Nc1cc(C(F)(F)F)cc(C(F)(F)F)c1)c1ccc(Cl)cc1Cl,77%[activator],8%
O=C(Nc1ccccc1)N1CCN(c2cc(=O)n3nc(-c4ccco4)sc3n2)CC1,3%,-3%
CCCCCCCCc1cnc(-c2ccc(OC(F)(F)F)cc2)nc1,-9%,-5%[1.06 µM]
Cc1ccc(C(C)C)c(OCCSc2nc(-c3ccccc3F)nc3cc(=O)[nH]n23)c1,-18%,-12%
Cc1ccc2c(C)c(CCC(=O)Nc3ccc(Cl)cc3)c(=O)oc2c1,47%[activator],27%
O=C(CN1CCN(c2nccs2)CC1)NCc1ccc(Cl)cc1,12%,1%
Cc1ccc(-n2c(SCC(=O)NC(=O)NC(C)C)nnc2N2CCCCC2)cc1,-7%,-4%
Cc1cccc(NS(=O)(=O)c2ccc3c(c2)C(C)(C)C(=O)N3C)c1,55%[activator],329%[activator]

# Additional records follow.
SMILES,2A firefly,StopGo RLuc
CC(C)CC(=O)NCCCCNC(=O)CC(C)C,-7%,-5%
Cc1ccc(S(=O)(=O)NC(CN(C)C)c2ccccc2)cc1F (stereo not given),-1%,-5%
Cc1ccc2oc(C(=O)Nc3cccc(C(=O)NC4CC4)c3)cc(=O)c2c1,6%,5%
Cc1cc(C(=O)CN(C)CC(=O)Nc2ccccc2Cl)c(C)n1CCc1cccs1,?,?
Cc1n[nH]c(C)c1S(=O)(=O)N1CCC(=O)CC1,-2%,-3%
COc1cccc(-n2c(=O)c3sccc3n(Cc3cc(=O)n4cc(Cl)ccc4n3)c2=O)c1,23%,-5%
CCOc1ccc(CC(=O)Nc2c(C(=O)c3ccccc3)oc3ccc(OC)cc23)cc1OCC,-13%,-14%
Cn1c(COc2ccccc2Cl)nnc1SCCOc1ccc(Br)cc1,5%,-11%[1.06 µM]
Cc1ccc(CNC(=O)CN2C(=O)C3CCCCN3c3ccc(C(=O)N(C)C)cc32)cc1 (stereo not given),-8%,12%
O=C1/C(=C/c2ccccc2F)CCc2ccccc21,67%[activator],?

# Continued.
SMILES,2A firefly,StopGo RLuc
CC(=O)c1c(C)n(-c2ccc(C)cc2)c2ccc(O)cc12,3%,10%
COc1cccc(Cn2nc(SC)c(S(=O)(=O)c3ccccc3)c2N(C(C)=O)C(C)=O)c1,-14%,5%
Cc1nn(C)c2ncc(NC(=O)CCc3ncc(-c4ccc(F)cc4)o3)cc12,5%,-7%
Cc1cc(C)cc(C(=O)NCCc2cccnc2)c1,0%,3%
Cc1ccc(C)c(OCC(=O)NCc2cccs2)c1,65%[activator],35%[activator]
CCOc1ccc(C(=O)OCc2cc(=O)n3nc(C(C)C)sc3n2)cc1,-19%,-8%
Cc1ccc(NC(=O)C(Cc2ccccc2)NS(=O)(=O)c2ccc3c(c2)oc(=O)n3C)c(Cl)c1 (stereo not given),-17%,-3%
Cc1cc(C)n(-c2nnc(SCC(=O)Nc3ccccc3OC(F)F)n2N)n1,4%,3%
COc1ccc(OC)c(CNC(=O)Cn2nc(C)c3c(C)n(-c4ccccc4)nc3c2=O)c1,-11%,-14%
Cc1nn(CCc2nnc(Nc3ccn(Cc4ccccc4Cl)n3)s2)cc1Br,?,?

# (listing goes on)
SMILES,2A firefly,StopGo RLuc
C/C(=C/C(=O)NS(=O)(=O)N(C)C)c1ccc(F)cc1,7%,9%
Cc1nnc(SCC(=O)NCc2ccccc2F)c2nn(-c3ccc(Cl)cc3)c(C)c12,24%,13%
Cc1ccc(-c2cc(C(=O)Nc3ccc(S(=O)(=O)N4CCCCC4C)cc3)no2)cc1F (stereo not given),3%,6%
CC1(C)CC(=O)C2=C(C1)OC(N)=C(C#N)C2c1ccc(-c2cc(Cl)ccc2Cl)o1 (stereo not given),0%,-6%
COC1=C(OC)C(=O)C(CCCCCCCCCCO)=C(C)C1=O,19%[11.5 µM],7%
CC(C)(C)c1ccc(OCC(=O)NC(Cc2c[nH]c3ccccc23)C(=O)O)cc1 (stereo not given),-22%,-14%
O=C(Cn1nc(C(=O)O)c2ccccc2c1=O)Nc1ccc(F)cc1,-6%,-8%
CC(=O)c1ccc(Nc2cc(C)nc3nc(Cc4ccccc4)nn23)cc1,-10%,-11%
CCOC(=O)c1sc(N)c(C#N)c1COC(=O)C12CC3CC(CC(O)(C3)C1)C2,4%,84%[activator]
Cc1oc(C)c2c(=O)cc(-c3ccc4c(c3)OCO4)cc(OC(=O)c3ccccc3Cl)c12,-13%,-18%

# The listing continues:
SMILES,2A firefly,StopGo RLuc
Cc1ccc2nc(CCCO)[nH]c2c1,3%,-2%
COC(=O)c1cn(CC(=O)Nc2ccc(C)c(C)c2)c2ccccc12,-1%,-8%
CC1(C)CC(=O)c2cc(C#N)c(SCc3ccccc3Cl)nc2C1,1%,-2%
O=C(O)/C=C(\CC(=O)O)C(=O)O,-13%[11.5 µM],0%
CN(C)Cc1ccc(CNC(=O)/C=C/c2ccsc2)cc1,0%,13%
O=C(NCCc1c[nH]c2ccccc12)OCc1cn(Cc2ccc(F)cc2F)nn1,11%,10%
CO[C@H]1O[C@@H]2COC(c3ccccc3)O[C@H]2[C@@H]2OC(c3ccccc3)O[C@H]12 (stereo not given in full),8%,8%
Cc1ccc(C(=O)c2sc(Nc3cccc(F)c3)nc2N)c(C)c1,42%[activator],5%
CCCN1C(C(=O)c2ccccc2)=C(OC(=O)c2ccc(OC)cc2)c2ccccc2S1(=O)=O,-11%,-4%
Cc1c(C(=O)N2CCC(C)CC2)c(S(=O)(=O)N2CCN(c3cccc(Cl)c3)CC2)c(C)n1C,0%,-3%

# The results go on.
SMILES,2A firefly,StopGo RLuc
COc1cccc(CNC(N)=O)c1,-4%,-7%
Cc1ccc2oc(=O)cc(C)c2c1,0%,15%
COc1ccc(C2=C(C)C(=O)N(Cc3ccc(C(=O)NCc4cccc(C)c4)cc3)S2(=O)=O)cc1,-2%,42%[activator]
Cc1cc(C)c(NC(=O)CCn2cnc3c2c(=O)n(C)c(=O)n3C)c(C)c1,-2%,-8%
CCCNc1c(NC(=O)C(C)C)c(=O)oc2ccccc12,5%,4%
COc1ccc(C(=O)Nc2ccc(OCc3cc(=O)n4ccccc4n3)cc2)cc1,-4%,-2%
CCc1ccc(NC(=O)CN2C(=O)CSc3ccc(S(=O)(=O)N(C)C)cc32)cc1,-7%,19%
FC(F)Oc1ccccc1C=C(c1nc2ccccc2s1)c1nc2ccccc2s1,0%,14%
Cc1cc(C=C(C#N)C#N)c(C)n1-c1ccncc1,0%,-1%
Cc1ccc(NC2(c3nnnn3-c3cccc(C)c3)CCCCC2)cc1,14%,199%[activator]

# Whole records, looked up by structure.
# Record of `COc1ccc(C(=O)Nc2ccc(OCc3cc(=O)n4ccccc4n3)cc2)cc1` → 2A firefly = -4%; StopGo RLuc = -2%
# Record of `COc1cccc(CNC(N)=O)c1` → 2A firefly = -4%; StopGo RLuc = -7%

# Going on with the list.
SMILES,2A firefly,StopGo RLuc
O=C(c1cc(Cl)cc(Cl)c1)N1CCN(C(=O)c2cc(Cl)ccc2F)CC1,13%,4%
CCOc1cc(/C=C2/NC(=O)NC2=O)cc(I)c1OCC,6%,14%
CCOCCn1c(-n2nc(C)cc2C)nc2c1c(=O)n(C)c(=O)n2C,-6%,-12%
COc1ccccc1OCCn1c(C(C)Oc2ccccc2)nc2ccccc21 (stereo not given),-17%,131%[activator]
O=c1c(=O)n(-c2ccccc2)ccn1Cc1c(F)cccc1Cl,11%,15%
Cc1ccc(C(=O)CCC(=O)OC(C)C(=O)C23CC4CC(CC(C4)C2)C3)s1 (stereo not given),-1%,-2%
CC(C)CCNC(=O)CN1C(=O)COc2ccc(S(=O)(=O)N3CCOCC3)cc21,-19%,-16%
CCCNc1c(NC(=O)Nc2ccc(C)c(C)c2)c(=O)oc2ccccc12,-3%,0%
COc1ccc(-c2cc3c4nnc(SCC(=O)Nc5cc(F)ccc5F)n4ccn3n2)cc1,179%[activator],9%
O=C(NC1CCN(Cc2ccccc2)C1)c1nn(-c2ccccc2)c(=O)c2ccccc12 (stereo not given),1%,-1%

# The list goes on:
SMILES,2A firefly,StopGo RLuc
Cc1ccc(C(=O)COC(=O)C2CC(=O)N(c3nc(-c4cccc(Cl)c4)c(C)s3)C2)cc1 (stereo not given),-10%,1%
CCc1noc(C)c1C(=O)Nc1ccc(OC(F)F)cc1,6%,0%
COc1ccc(S(=O)(=O)N2CCC(c3ccncc3)CC2)cc1Cl,0%,-9%
CCOc1ccc(N2CC(c3nc4ccccc4n3Cc3ccccc3F)CC2=O)cc1 (stereo not given),-7%,-4%
Cc1oc2ncn(C)c(=O)c2c1C(=O)N(Cc1ccccc1)C(C)C,1%,0%
N#Cc1ccc(/C=C/C(=O)N2CCC(c3nc4ccccc4o3)CC2)cc1,0%,17%
COc1ccc2c(c1)c(C(C(=O)O)N1CCN(c3ccc(F)cc3)CC1)cn2CCC(=O)O (stereo not given),4%,0%
CCc1ccc(-c2csc(Nc3ccc(O)c(C(=O)O)c3)n2)cc1,137%[activator],6%
C=CCOc1cccc(NC(=O)C2CCCCC2)c1,81%[activator],82%[activator]
Cc1ccc(-n2nnnc2CNC(=O)c2ccc(F)cc2)cc1C,-14%,7%

# (more compounds)
SMILES,2A firefly,StopGo RLuc
Cc1oc(-c2ccccc2)nc1CC(=O)Nc1ncccc1O,22%,6%
Cc1nc(N2CCOCC2)c2c(C(=O)N(C)c3ccccc3)c(C)oc2n1,-5%,-5%
CC1CCc2c(C(=O)NC(C)c3ccccc3)csc2C1 (stereo not given),42%[activator],19%
CCc1ccc(-c2csc(NC(=O)c3nn(CC)c(=O)c4ccccc34)n2)cc1,0%,?
CCOc1ccc(CCNC(=O)c2cn(CC)c3ccc(S(=O)(=O)N4CCCCCC4)cc3c2=O)cc1OCC,-20%,0%
Cn1cc(C(=O)NC2CCCCC2)c(-c2ccc3c(c2)OCCCO3)n1,0%,20%
COc1ccc(C(=O)OCc2cc(=O)n3nc(-c4cccs4)sc3n2)cc1,26%,-5%
Cc1ccc(Cn2nnc3c2-c2ccccc2S(=O)(=O)N(C)C3)cc1,12%,118%[activator]
O=C(CSc1nc2ccccc2o1)Nc1ccc(Oc2ccccc2)cc1,273%[activator],47%[activator]
Cn1c(=O)[nH]c(=O)c2c1nc(N1CCN(c3ccccc3)CC1)n2Cc1ccccc1F,-12%,-7%

# Compounds from the list above that contain a COOH group:
SMILES,2A firefly,StopGo RLuc
CC(C)(C)c1ccc(OCC(=O)NC(Cc2c[nH]c3ccccc23)C(=O)O)cc1 (stereo not given),-22%,-14%
O=C(Cn1nc(C(=O)O)c2ccccc2c1=O)Nc1ccc(F)cc1,-6%,-8%
O=C(O)/C=C(\CC(=O)O)C(=O)O,-13%[11.5 µM],0%
COc1ccc2c(c1)c(C(C(=O)O)N1CCN(c3ccc(F)cc3)CC1)cn2CCC(=O)O (stereo not given),4%,0%
CCc1ccc(-c2csc(Nc3ccc(O)c(C(=O)O)c3)n2)cc1,137%[activator],6%

# Going on with the list.
SMILES,2A firefly,StopGo RLuc
CN(C)CCCN1C(=O)CSC1c1ccc(Cl)c(Cl)c1 (stereo not given),-9%,-14%
COC(=O)C1CCN(Cc2cc(=O)oc3ccc(Cl)cc23)CC1,24%,10%
Cc1noc(CSc2ccccc2C(=O)N2CC=C(c3ccccc3)CC2)n1,-8%,7%
Cc1cccc(NC(=O)CSc2nc(-c3ccccc3Cl)nc3c2Cc2c(CO)cnc(C)c2O3)c1C,-16%,10%
O=c1c2c3c(sc2nnn1Cc1ccc(F)cc1)CCCC3,-3%,2%
CCOc1ccccc1NC(=O)Cn1c(=O)n(Cc2ccc(OC)cc2)c(=O)c2oc3ccccc3c21,-21%,-13%
CC(=O)Nc1cccc(-c2nc3ccccc3o2)c1,136%[activator],5%
O=C(NCc1ccc(F)cc1)c1cccc(S(=O)(=O)Nc2ccc3c(c2)OCO3)c1,12%,151%[activator]
CC(C)(C)OC(=O)N1CCCC1C(=O)NCc1ccccc1Cl (stereo not given),5%,5%
COc1ccc(C(=O)c2sc(Nc3cccc(C)c3)nc2N)cc1OC,84%[activator],63%[activator]
C=CCOc1ccc2c(C)c(CCC(C)C)c(=O)oc2c1,203%[activator],0%
O=C(Nc1nnc(S(=O)(=O)N2CCCCCC2)s1)c1ccc(Br)cc1,9%,-12%
COc1ccc(NC(=O)CN(C)C(=O)COc2ccc3oc4c(c3c2)CCCC4)cc1,20%,0%

# Bioassay records (PubChem BioAssay)

# Not all compounds are listed; rates above refer to the full screens.
